# Assay outcomes (PubChem)
# VDR inhibitor – inhibitors of human vitamin D receptor. 0.93% of 400,000 active. Potency, µM, for the others: max response, negative = inhibition, most hits filed as inhibitors. P11473. VDR-SRC2-3 peptide fluorescence polarization, 2 h; active = well fitted inhibition curve with a large enough effect; note: series mostly up to about 120 µM
# Target sequence (P11473 whole entry, looked up): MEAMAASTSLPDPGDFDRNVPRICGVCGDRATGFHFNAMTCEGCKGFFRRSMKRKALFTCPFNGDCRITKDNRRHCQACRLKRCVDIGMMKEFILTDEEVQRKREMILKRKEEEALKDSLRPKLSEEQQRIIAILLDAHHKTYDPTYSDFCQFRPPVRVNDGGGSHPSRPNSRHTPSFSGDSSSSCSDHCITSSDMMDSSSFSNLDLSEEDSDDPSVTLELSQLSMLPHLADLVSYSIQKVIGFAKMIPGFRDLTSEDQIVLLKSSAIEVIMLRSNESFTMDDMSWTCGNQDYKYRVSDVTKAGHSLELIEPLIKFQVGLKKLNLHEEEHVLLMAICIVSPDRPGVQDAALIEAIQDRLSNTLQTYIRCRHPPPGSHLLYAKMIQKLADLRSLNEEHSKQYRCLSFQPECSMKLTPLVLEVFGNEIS
#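 VDR–SRC2-3 interaction, FP format. Cmpds 23 nl via pintool, brief spin, 2 h ambient incubation.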
# Starred values were filed as active, the others as inactive; [ ] = another dose, or the depositor's remark. % is set by controls: 0 for no effect and ±100 for the full control effect; potency is the fitted concentration of half-maximal effect.
molecule: CC(Sc1nnnn1-c1ccc(O)cc1)C(=O)NNC(=O)c1ccc(F)cc1 (stereo not given)
  VDR inhibitor: 7.9%
molecule: Cc1ccc(C)c(S(=O)(=O)N2CCCC2CNC(=O)C(=O)NCCc2ccccc2)c1 (stereo not given)
  VDR inhibitor: -0.4%
molecule: CCC(=O)NS(=O)(=O)c1ccc(N=NN2CCCCC2)cc1
  VDR inhibitor: -5.8%
molecule: CN(C1CCCCC1)S(=O)(=O)c1ccc(NC(=S)NC(=O)c2cccs2)cc1
  VDR inhibitor: -6.9%
molecule: CCCC(c1nnnn1CC(=O)OCC)N(Cc1cc2ccc(C)cc2[nH]c1=O)C1CCCC1 (stereo not given)
  VDR inhibitor: 25.2%
molecule: CCN(CC)S(=O)(=O)c1cccc(NC(=O)COc2ccc(C#N)cc2OC)c1
  VDR inhibitor: 4.1%
molecule: O=C(CN1C(=O)COc2ccc(S(=O)(=O)NC3CCCC3)cc21)Nc1ccc(F)c(Cl)c1
  VDR inhibitor: 3.4%
molecule: COC(=O)C1=C(C)N(CC2CCCO2)C(=O)C1 (stereo not given)
  VDR inhibitor: -1.1%
molecule: CN(C)c1nc2c(c(=O)[nH]c(=O)n2C)n1Cc1ccccc1Br
  VDR inhibitor: -13.5%
molecule: Cc1sc2ncnc(N3CCC(C(=O)Nc4cc(C(F)(F)F)ccc4OCC(F)(F)F)CC3)c2c1C
  VDR inhibitor: -1.1%
molecule: C=CCNc1cnn(-c2ccc(C)cc2)c(=O)c1Sc1ccc(C)cc1
  VDR inhibitor: -12.3%
molecule: COC(=O)Nc1nnc(-c2ccccc2Cl)s1
  VDR inhibitor: 0.6%
molecule: Cc1cccc(NC(=O)C(=O)NCc2ccc3c(c2)OCO3)c1C
  VDR inhibitor: 2.1%
molecule: Cc1[nH]c(=O)[nH]c(=O)c1S(=O)(=O)N1CCN(c2ccccc2Cl)CC1
  VDR inhibitor: -1.4%
molecule: CCN(C(=O)COC(=O)/C=C/c1ccc(OC(F)F)c(OC)c1)C1CCS(=O)(=O)C1 (stereo not given)
  VDR inhibitor: -17.9%
molecule: Cc1ccc(CC(NC(=O)c2ccccc2)C(=O)NCC(=O)O)cc1 (stereo not given)
  VDR inhibitor: -4.6%
molecule: CC(=O)N(C)c1ccc(N=Cc2c(O)ccc3ccccc23)cc1
  VDR inhibitor: 1.6%
molecule: O=C(COC(=O)c1cccnc1Cl)NC1CCCCC1
  VDR inhibitor: -17.1%
molecule: CCCCCCCCCCSc1n[nH]c(NC(C)=O)n1
  VDR inhibitor: -9.7%
molecule: CC(=O)N1N=C(c2cccc(Br)c2)OC12CCCC2
  VDR inhibitor: -18.9%
molecule: O=C(O)CCC(=O)c1ccc2c(c1)OCCO2
  VDR inhibitor: 7.3%
molecule: COCCCNC(=O)c1ccc(N2CCCC2)c(NS(=O)(=O)c2ccc(C)cc2)c1
  VDR inhibitor: 12.7%
molecule: Cn1nnc2cc(NC(=O)N3CCN(c4ccccn4)CC3)ccc21
  VDR inhibitor: 9.0%
molecule: O=C(CC1OC(=O)c2ccccc21)NCC1COc2ccccc2O1 (stereo not given)
  VDR inhibitor: -10.5%
molecule: CCn1c(SCC(=O)Nc2oc(-c3ccccc3)c(-c3ccccc3)c2C#N)nnc1-c1cc(OC)cc(OC)c1
  VDR inhibitor: -3.4%

# Part of the list above, with the structure last:
VDR inhibitor	Compound
-18.9%	CC(=O)N1N=C(c2cccc(Br)c2)OC12CCCC2
7.3%	O=C(O)CCC(=O)c1ccc2c(c1)OCCO2
12.7%	COCCCNC(=O)c1ccc(N2CCCC2)c(NS(=O)(=O)c2ccc(C)cc2)c1
9.0%	Cn1nnc2cc(NC(=O)N3CCN(c4ccccn4)CC3)ccc21

# Returning to the listing with the 4 entries that preceded the break.
molecule: COCCCNC(=O)c1ccc(N2CCCC2)c(NS(=O)(=O)c2ccc(C)cc2)c1
  VDR inhibitor: 12.7%
molecule: Cn1nnc2cc(NC(=O)N3CCN(c4ccccn4)CC3)ccc21
  VDR inhibitor: 9.0%
molecule: O=C(CC1OC(=O)c2ccccc21)NCC1COc2ccccc2O1 (stereo not given)
  VDR inhibitor: -10.5%
molecule: CCn1c(SCC(=O)Nc2oc(-c3ccccc3)c(-c3ccccc3)c2C#N)nnc1-c1cc(OC)cc(OC)c1
  VDR inhibitor: -3.4%
molecule: O=c1n(-c2ccccc2)c(=O)n2n1CCC2
  VDR inhibitor: -5.8%
molecule: O=C(O)[C@@H]1Cc2ccccc2N1
  VDR inhibitor: -3.2%
molecule: COCCn1c(=N)c(C(=O)NCc2ccco2)cc2c(=O)n3ccccc3nc21
  VDR inhibitor: 8.6%
molecule: COc1ccccc1NC(=O)CCSc1nnc(-c2ccco2)o1
  VDR inhibitor: 4.1%
molecule: CCCCNC(=O)CSc1nc2cc3c(cc2c(=O)n1CCC(=O)NCCc1ccc(OC)c(OC)c1)OCO3
  VDR inhibitor: -12.5%
molecule: COc1cccc(N2CCN(CC(=O)Nc3ccccc3C(=O)NCc3ccccc3)CC2)c1
  VDR inhibitor: 0.5%
molecule: COc1cccc(-n2c(Cc3cc(=O)[nH]c(=O)[nH]3)nnc2SCC(=O)N2CCCC2)c1
  VDR inhibitor: -2.2%
molecule: CCn1cc(CNCc2ccc(OCC(O)CN(C)Cc3ccccc3)cc2)cn1 (stereo not given)
  VDR inhibitor: -19.8%
molecule: O=C(O)c1cccc(NC(=S)NC(=O)c2ccncc2)c1
  VDR inhibitor: 30.1%[activator]
molecule: Cn1nc(C(=O)Nc2cccc(S(=O)(=O)N3CCCCC3)c2)c2ccccc2c1=O
  VDR inhibitor: 20.7%
molecule: Nc1c(C(=O)Nc2ccc3c(c2)OCCO3)nnn1Cc1cccc(Cl)c1
  VDR inhibitor: -1.7%
molecule: COc1ccc(OC)c(N(CC(=O)N2CCCC2)S(=O)(=O)c2ccccc2)c1
  VDR inhibitor: -1.8%
molecule: COc1cc(OC)c(NC(=O)Cn2c(=O)nc(-c3ccccc3)c3ccccc32)cc1Cl
  VDR inhibitor: -5.4%
molecule: CC12CC3CC(C)(C1)CC(CN)(C3)C2
  VDR inhibitor: 4.3%
molecule: CCOc1ccc(C(CC(=O)O)NC(=O)Cc2ccc(Cl)cc2)cc1 (stereo not given)
  VDR inhibitor: 3.7%
molecule: NC(=O)c1ccccc1NC(=O)c1cccc(C(=O)Nc2ccccc2C(N)=O)n1
  VDR inhibitor: -7.3%
molecule: O=C(O)CC(c1ccc(Cl)cc1)n1cccc1 (stereo not given)
  VDR inhibitor: -7.7%
molecule: CCOC(=O)CSc1nnc(NC(=O)CN2CCCCC2)s1
  VDR inhibitor: -28.4%
molecule: COc1ccccc1C(=O)NCC(=O)N1CC=C(c2ccccc2)CC1
  VDR inhibitor: -3.3%
molecule: c1csc(CNc2ncncc2-c2ccoc2)c1
  VDR inhibitor: 50.1µM*
molecule: O=C(COC(=O)C1CC(=O)N(Cc2ccco2)C1)c1ccc(OC(=O)c2ccccc2)cc1 (stereo not given)
  VDR inhibitor: -19.8%
molecule: O=C(NCc1ccccc1)C(=O)NCC1OCCN1C(=O)c1cccs1 (stereo not given)
  VDR inhibitor: -7.3%
molecule: CCOc1ccc2oc(C(=O)Nc3ccc4c(c3)OCO4)c(C)c2c1
  VDR inhibitor: 19.8%
molecule: CCOC(=O)c1cc(-c2cccnc2)nn1-c1ccccc1
  VDR inhibitor: 4.2%
molecule: O=C(CCN1C(=O)c2ccccc2C1=O)N(CCO)Cc1ccccc1
  VDR inhibitor: 0.1%

# 3 entries out of the list above, ordered by their value in VDR inhibitor, descending:
SMILES | VDR inhibitor
CCOc1ccc(C(CC(=O)O)NC(=O)Cc2ccc(Cl)cc2)cc1 (stereo not given) | 3.7%
CCN(C(=O)COC(=O)/C=C/c1ccc(OC(F)F)c(OC)c1)C1CCS(=O)(=O)C1 (stereo not given) | -17.9%
CC(=O)N1N=C(c2cccc(Br)c2)OC12CCCC2 | -18.9%

# 4 entries drawn at random from the list so far, as already listed:
molecule: CCCCNC(=O)CSc1nc2cc3c(cc2c(=O)n1CCC(=O)NCCc1ccc(OC)c(OC)c1)OCO3
  VDR inhibitor: -12.5%
molecule: O=c1n(-c2ccccc2)c(=O)n2n1CCC2
  VDR inhibitor: -5.8%
molecule: CCOc1ccc(C(CC(=O)O)NC(=O)Cc2ccc(Cl)cc2)cc1 (stereo not given)
  VDR inhibitor: 3.7%
molecule: CCOC(=O)c1cc(-c2cccnc2)nn1-c1ccccc1
  VDR inhibitor: 4.2%

# Next results:
canonical_smiles	VDR inhibitor
CC1SCC(=O)N(CC(=O)NC2CCCCC2)C1=O (stereo not given)	-1.9%
CC(/C=C/c1cccc([N+](=O)[O-])c1)=N\NC(=O)c1ccncc1	-17.9%
CC(=O)Oc1ccc(-c2nc3ccccc3c(=O)o2)cc1	-24.0%
CCc1cccc(N=c2c([N+](=O)[O-])nn(-c3ccc(Cl)cc3)n2O)c1	-13.1%
Cc1cccc(Cn2nnc3c(=O)[nH]c(C4CCN(C(=O)c5ccccc5F)CC4)nc32)c1	6.9%
Cc1cc(C)c(NC(=O)COC(=O)c2nc3nccc(C)n3n2)c(Cl)c1	4.5%
COc1ccc(N2C(=O)S[C@@H]3CS(=O)(=O)C[C@@H]32)cc1	-15.9%
Cc1sc2ncnc(N3CCC(C(=O)NNC(=O)c4ccc(F)cc4)CC3)c2c1C	-0.1%
Cc1ccccc1OCCSc1nc2ccc(NC(=O)c3cccs3)cc2s1	7.1%
O=C(CCN1C(=O)c2ccccc2S1(=O)=O)Nc1ccc(C(=O)O)cc1	1.4%
CC1CC(C)CN(C(=O)C2CCN(S(=O)(=O)c3c(Cl)cccc3Cl)CC2)C1 (stereo not given)	1.9%
COc1ccc(C(=O)Nc2ccc(OCc3ccccc3)cc2)cc1[N+](=O)[O-]	12.9%
Cc1cc(C)n2c(SCC(O)=C(C#N)c3nc4ccccc4[nH]3)nnc2n1	3.6%
CN(CC(=O)Nc1ccccc1C(F)(F)F)C(=O)CC1OC(=O)c2ccccc21 (stereo not given)	2.8%
COc1ccc(NC(=O)Cn2nnc(C(=O)NCc3cccs3)c2N)cc1Cl	-4.7%
O=C(CCN1C(=O)COc2ccccc21)NCCCN1CCN(c2ccc(F)cc2)CC1	17.3%
CCOc1cc(N2CCOCC2)c(OCC)cc1NC(=O)c1ccc(S(=O)(=O)N(C)C)cc1	1.5%
Cc1c(CCC(=O)N[C@@H](C)C(=O)O)c(=O)oc2c(C)c3oc4c(c3cc12)CCCC4	-2.6%
Cc1ccccc1OCCCC(=O)Nc1ccc(Br)cc1	-2.3%
CC1(NC(=O)Cc2ccc(Cl)c(Cl)c2)CCS(=O)(=O)C1 (stereo not given)	-6.1%
O=c1c2ccccc2[nH]c2ccc(O)cc12	5.6%
O=C(Nc1ccccn1)c1cccc(S(=O)(=O)N2CCCc3ccccc32)c1	-15.4%
N=c1n(CCO)c2ccccc2n1CCOc1ccc(Cl)cc1Cl	-4.8%
COC(=O)[C@@H]1C[C@@H]2CC[C@@H](O)C[C@@H]2N1Cc1ccc(C(F)(F)F)cc1	-8.4%
CC(C)C[C@H]1CNC(=O)C(=O)N1CC1CCN(CCC(C)(C)C)CC1	-11.3%
CCc1cccc(C)c1N=Cc1c(O)c2ccccc2oc1=O	-14.0%
CN(c1ccccc1C(=O)Nc1ccc(S(=O)(=O)N2CCCCC2)cc1)S(C)(=O)=O	-7.5%
CN(C)CCCN=c1cc(-c2ccccc2)oc2ccc(Cl)cc12	-7.5%
CC1Oc2ccccc2N(CC(=O)NC2CCCC2)C1=O (stereo not given)	-6.1%
CN1CCN(c2ccc(Cl)cc2NC(=O)/C=C/c2cccc(F)c2)CC1	-9.7%
CC(=O)N1CCc2c(sc3c2c(=O)n(-c2ccc(C)cc2)c(=O)n3CC(=O)Nc2ccccc2)C1	10.6%
C=CCOc1ccc(C=Nc2ccc(C)c(Cl)c2)c(O)c1	-4.9%
O=C(N/N=C/c1c[nH]c2ccccc12)c1ccc([N+](=O)[O-])cc1Cl	-3.1%
O=C(NCC(c1cccnc1)N1CCN(c2ccccc2)CC1)C1CCCCC1 (stereo not given)	1.8%
COC(=O)c1cc(/C=C/c2ccccc2)on1	4.2%
CC(=O)C(C)Oc1ccc2c3c(c(=O)oc2c1)CCCCC3 (stereo not given)	15.1%
COc1ccccc1N1CCN(Cc2cn[nH]c2-c2ccc(F)cc2)CC1	-0.3%
COCCCN(CC(=O)O)S(=O)(=O)c1ccccc1	2.4%
Cc1ccc(C)c(N2CCN(C(=O)c3ccc4c(c3)N(Cc3ccc(F)cc3)C(=O)c3ccccc3S4=O)CC2)c1 (stereo not given)	-0.5%
Cc1cccc(NC(=O)c2c(Br)sc3c2CCCC3)c1	-21.6%
COc1cc(OC)c(OC)cc1/C=C/c1nc2cc3ccccc3cc2c(=O)n1-c1ccc(Cl)cc1	4.9%
CCCSc1ccc([C@@H]2[C@@H]3C(=O)N(C)C(=O)[C@@H]3[C@]3(C(=O)OC)CCCN23)cc1OC	-25.3%
COc1ccc(C(=O)Nc2cc3c4c(c2)C(C)C(=O)N4CCC3)cc1 (stereo not given)	6.2%
CN1CCc2c(sc(NC(=O)CS(=O)(=O)c3ccc(F)cc3)c2C(N)=O)C1	2.1%
COc1cc(/C=N/NC(=S)Nc2cccc(S(=O)(=O)N(C)C)c2)cc(OC)c1O	-2.6%
CC(NC(=O)COC(=O)c1ccc2ccccc2n1)C1CC2CCC1C2 (stereo not given)	-28.5%
Cn1cc(CC(=O)NC2CCCCC2)c2ccccc21	-6.6%
O=C(NCCc1nnc2ccc(NCc3ccc(F)cc3)nn12)c1ccccc1	-17.3%
O=C(O)c1nn(-c2cccc(Cl)c2)c(=O)cc1O	-11.1%
CCCCCOc1ccc(Cn2c(=O)oc3ccc(C)cc32)cc1OC	11.4%
CC[n+]1c(/C=C/N(C)c2ccccc2)oc2ccc(Cl)cc21	1.2%
CCCn1c(=N)n(CC(=O)OCC)c2ccccc21	2.7%

# These rows are one share of the data. The share of hits here may be higher or lower than overall.
